# NPR1 antag: antagonists of human natriuretic peptide receptor Npr1; P16066; HEK293 hNpr1 GloSensor cGMP, ANP-stimulated luminescence; Potency, µM (doses to about 46.3 µM), for inactives: top-dose activity change, negative = inhibition, usual class: inhibitors; 76,000 compounds, 1.6% hits; AID 1347048; active = well fitted inhibition curve with a large enough effect; inconclusive = small, poorly fitted or top-dose-only effect; inactive = no such curve, though single readings can be large or run the other way;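 further: nearly all actives have a fitted effect of over 60% in size; nearly all hits also lower the signal before the agonist is added; a reference antagonist and vehicle were the controls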
# Target sequence (P16066 whole entry, looked up): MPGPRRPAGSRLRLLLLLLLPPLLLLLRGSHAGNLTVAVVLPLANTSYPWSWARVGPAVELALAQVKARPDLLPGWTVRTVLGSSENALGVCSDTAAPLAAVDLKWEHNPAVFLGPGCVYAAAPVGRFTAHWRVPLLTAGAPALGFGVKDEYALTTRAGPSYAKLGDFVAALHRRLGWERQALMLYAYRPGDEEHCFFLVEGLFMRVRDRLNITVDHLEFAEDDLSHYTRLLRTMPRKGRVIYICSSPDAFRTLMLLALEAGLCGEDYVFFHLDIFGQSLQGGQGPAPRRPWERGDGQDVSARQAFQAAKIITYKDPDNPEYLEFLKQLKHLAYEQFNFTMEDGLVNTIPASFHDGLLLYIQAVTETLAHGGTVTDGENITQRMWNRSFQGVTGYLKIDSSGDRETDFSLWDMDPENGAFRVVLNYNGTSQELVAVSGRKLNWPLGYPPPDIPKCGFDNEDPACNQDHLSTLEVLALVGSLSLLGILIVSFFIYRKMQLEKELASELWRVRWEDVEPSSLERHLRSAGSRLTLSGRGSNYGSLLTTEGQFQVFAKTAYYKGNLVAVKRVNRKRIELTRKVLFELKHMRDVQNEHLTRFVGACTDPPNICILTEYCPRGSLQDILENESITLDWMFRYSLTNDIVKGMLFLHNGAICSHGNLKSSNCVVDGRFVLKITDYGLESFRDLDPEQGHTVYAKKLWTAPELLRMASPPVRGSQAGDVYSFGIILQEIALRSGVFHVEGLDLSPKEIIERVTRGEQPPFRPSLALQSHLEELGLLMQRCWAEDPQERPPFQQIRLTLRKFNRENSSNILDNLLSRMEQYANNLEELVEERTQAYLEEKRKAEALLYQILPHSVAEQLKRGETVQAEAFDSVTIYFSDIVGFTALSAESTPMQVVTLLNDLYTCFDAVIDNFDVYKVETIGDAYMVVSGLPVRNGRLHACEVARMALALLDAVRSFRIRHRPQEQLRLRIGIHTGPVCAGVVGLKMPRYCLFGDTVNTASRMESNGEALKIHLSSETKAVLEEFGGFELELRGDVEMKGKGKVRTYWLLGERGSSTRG
#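 Compound pre-incubated 30 min at room temperature on GloSensor-loaded HEK293 cells stably carrying hNpr1 and the pGS-40F cGMP biosensor. Stimulation uses hNppA at 0.1 nM final; luminescence is taken at baseline and 20 min post-agonist.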
# An asterisk follows results filed as active; ? = inconclusive; [ ] = remark or other dose. On the % scale 0 is the no-effect control and ±100 the full control effect; potency means the concentration at half of the fitted maximal effect.
NPR1 antag	molecule
-2%	Cc1nn(C)c2ncc(C(=O)O)c(NC3CC(c4cc(=O)[nH]cn4)C3)c12 (stereo not drawn)
4%[70.6 µM]	O=C(NC[C@H]1OC[C@@H](NC2CCCCC2)[C@@H]1O)c1ccncc1
-13%	O=C(Nc1ccc(F)cc1)C1CCN(C(=O)c2ncn3c2COC(c2ccc(F)cc2)C3)CC1 (stereo not drawn)
0%	CCCc1noc(-c2cn(C3CCN(C(=O)Cc4cccc(F)c4)CC3)nn2)n1
-4%	CN(C)C[C@H]1C[C@@H](CO)CN(C(=O)CN2CCC(c3ccccc3)CC2)C1
-2%[70.6 µM]	CCC(CC)C(=O)Nc1ccc([C@H]2OCC(=O)N(C)[C@@H]2CO)cc1
4%	Cc1ccc(NC(=O)N[C@@H](Cc2ccccc2)C(=O)N2CCCOCCNC(=O)CC2)cc1C
-4%	O=C1CCC2(C(=O)NCCN3CCOCC3)CCCC=C2N1c1ccccc1 (stereo not drawn)
?	O=C(c1ccc(F)c(F)c1)N1CCN(C(=O)c2nnn3c2COC(c2ccccc2)C3)CC1 (stereo not drawn)
-2%[70.6 µM]	COCCNC(=O)C1(C)CCCc2cnc(Nc3ccccc3)nc21 (stereo not drawn)
?	O=S(=O)(Cc1ccccc1)N[C@H]1CO[C@H]2[C@@H]1OC[C@@H]2Nc1nccc(-c2cccc(F)c2)n1
-2%	COc1cccc(CNC(=O)c2noc(-c3ccc(C)cc3)n2)c1
?	O=C(Nc1ccc([C@@H](O)[C@H]2COCC(=O)N2Cc2ccc(F)cc2)cc1)c1ccnc(Cl)c1
1%[70.6 µM]	CS(=O)(=O)c1ccc(OC[C@H]2C[C@@H](NC(=O)Nc3ccccc3)[C@H](O)[C@@H]2O)cc1
4%	CN(C)S(=O)(=O)N1[C@@H]2CC[C@H]1CC(NC(=O)c1ccc(F)cc1)C2 (stereo partly drawn)

# Entries above that contain nitrogen in an aromatic ring (9):
NPR1 antag	molecule
-2%	Cc1nn(C)c2ncc(C(=O)O)c(NC3CC(c4cc(=O)[nH]cn4)C3)c12 (stereo not drawn)
4%[70.6 µM]	O=C(NC[C@H]1OC[C@@H](NC2CCCCC2)[C@@H]1O)c1ccncc1
-13%	O=C(Nc1ccc(F)cc1)C1CCN(C(=O)c2ncn3c2COC(c2ccc(F)cc2)C3)CC1 (stereo not drawn)
0%	CCCc1noc(-c2cn(C3CCN(C(=O)Cc4cccc(F)c4)CC3)nn2)n1
?	O=C(c1ccc(F)c(F)c1)N1CCN(C(=O)c2nnn3c2COC(c2ccccc2)C3)CC1 (stereo not drawn)
-2%[70.6 µM]	COCCNC(=O)C1(C)CCCc2cnc(Nc3ccccc3)nc21 (stereo not drawn)
?	O=S(=O)(Cc1ccccc1)N[C@H]1CO[C@H]2[C@@H]1OC[C@@H]2Nc1nccc(-c2cccc(F)c2)n1
-2%	COc1cccc(CNC(=O)c2noc(-c3ccc(C)cc3)n2)c1
?	O=C(Nc1ccc([C@@H](O)[C@H]2COCC(=O)N2Cc2ccc(F)cc2)cc1)c1ccnc(Cl)c1

# Later entries
NPR1 antag	molecule
-2%	CCCc1nc(C)n2ccn(Cc3cccc(C#N)c3)c(=O)c12
-2%	COCc1cc(=O)n(CC(=O)Nc2cccc(Cl)c2)c(N2CCOCC2)n1
-3%	O=C([C@@H]1C[C@H](Oc2ccccc2)CN1C(=O)C1CCC1)N1CCCC1
?	CC(O)c1cc2n(n1)CCCN(Cc1cccc(OC3CCCC3)c1)C2 (stereo not drawn)
7%	COc1ccc(CC(=O)Nc2ccc([C@H]3OCC(=O)N(C4CCOCC4)[C@@H]3CO)cc2)cc1
11%[70.6 µM]	CN(Cc1cccc2ccccc12)C1CCc2ccccc21 (stereo not drawn)
?	O=C(C1CCCC1)N1CCC(CCOc2ccc(F)cc2)C1 (stereo not drawn)
?	COc1ccc(-c2cc3c(=O)n(CCNC(=O)c4n[nH]c5c4CCCC5)ccn3n2)cc1
-2%	CC(C)c1ccc(NC(=O)C2(Cc3cccnc3)CCCCC(=O)N2)cc1 (stereo not drawn)
1%	Cc1nnc2ccc(NC(C)C)nn12
13%	COCCNC(=O)C1c2ccccc2C(=O)N(CC(C)C)C12CCCCC2 (stereo not drawn)
2%[70.6 µM]	CC(=O)NC1(C)CCN(Cc2cccc(-c3cccc(Cl)c3)c2)C1 (stereo not drawn)
9%[70.6 µM]	O=C(C1CC1)N1C[C@@H]2OCC(=O)N(Cc3ccccc3)[C@@H]2C1
-1%	O=C(c1ccccc1Cl)N1CCCC(c2nn(-c3ccc(F)cc3)c(=O)[nH]2)C1 (stereo not drawn)
0%	CCn1cc(S(=O)(=O)N2CCCC(Cc3ncc(C)n3Cc3ccccc3)C2)cn1 (stereo not drawn)
1%	Cc1ccc(S(=O)(=O)Nc2nc3c(s2)C[C@@H]2[C@](C)(CO)[C@H](O)CC[C@@]2(C)[C@@H]3CC(=O)O)cc1
-18%[70.6 µM]	COc1ccc(C(=O)N2CCCn3nc(C)c(-c4ccccc4-c4ccccc4)c32)cn1
-1%	COc1ccc(CN2CCC3(CC2)CC(O)CCO3)cc1 (stereo not drawn)
6%	COc1cc(CN2CCC(C)(C#N)CC2)ccc1OCC(O)CN1CCOCC1 (stereo not drawn)
-4%	CCS(=O)(=O)N1CCC(c2noc(COc3ccc(F)cc3)n2)C1 (stereo not drawn)
0%	COCCO[C@H]1C(=O)N(C2CCN(S(=O)(=O)c3cccnc3)CC2)[C@H]1c1ccncc1
2%[70.6 µM]	O[C@H]1[C@H](NCc2cccc(C(F)(F)F)c2)[C@@H](c2cccnc2)C[C@H]1O
4%[70.6 µM]	O=[N+]([O-])c1cccc(-c2noc([C@@H]3C[C@@H](O)CN3Cc3cccs3)n2)c1
1%	Cc1ccc(C(=O)N2CC3CC(C2)[C@H]2CCCC(=O)N2C3)s1 (stereo partly drawn)
2%	CCOCC(=O)N1CCC2(CC1)CC(Cc1nc(-c3ccncc3)no1)CCO2 (stereo not drawn)
-2%[70.6 µM]	Fc1ccc(CNC2(Cc3cc(-c4ccc(F)cc4)on3)COC2)cc1
-13%[70.6 µM]	CN1Cc2c(cc(N3CCOCC3)nc2-c2cccc(F)c2)C1=O
?	C=CCOC(=O)C1=C(C)N=C2SC=C(CC(=O)NCc3ccco3)N2C1c1cccc(C)c1 (stereo not drawn)
8%	O=C(Nc1ccccc1)Nc1ccc(-c2nnc3n2CCCC3)cc1
-10%	Cc1noc(-c2cccn3c(CNC(=O)c4ccc(F)c(Cl)c4)nnc23)n1
-10%	COc1ccc(CN2CCCc3nc(C)nc(-c4ccc(O)cc4)c3C2)cc1
?	O=C(Cc1c[nH]c2ncc(-c3ccc(F)cc3)cc12)N1CCOCC1
0%	OC1CCOC2(CCN(Cc3cccnc3)CC2)C1 (stereo not drawn)
2%	O=C(O)CSCC(=O)N1CCN2C(=O)c3cc(-c4ccc(Cl)cc4)ccc3NC(=O)[C@@H]2C1
-4%[70.6 µM]	Cn1cc(CN2C[C@@H](F)[C@@H](OCc3nc4ccccc4[nH]3)C2)c2ccccc21
-18%	Cc1ccc(C(=O)CCc2nc(C3CC(=O)N(C4CCCCC4)C3)no2)cc1 (stereo not drawn)
6%	CN(Cc1nc2ccc(F)cc2[nH]1)C(=O)c1cn(CCN)nn1
4%	CCOc1cc(=O)n2c(c1C(=O)Nc1ccccc1)CCCCC2
1%	COCC(=O)N[C@@H]1CN(Cc2sccc2C)CC[C@@H]1c1n[nH]c(C)n1
0%	CCOc1ccc(C(=O)N2CCC3(CC2)NC(=O)N(Cc2ccccc2)C3=O)cc1
4%	O=C(N[C@@H]1CCOC[C@H]1OCCO)c1cccc(-c2ccco2)c1
2%	CN(C)C[C@@H]1CN(S(C)(=O)=O)C[C@H]1NC(=O)c1ccccc1
2%	COc1cccc(-c2cn3c(n2)N(C(=O)Cc2ccccc2)CCC3)c1
-1%	Cc1ccc(-c2ncc(C(=O)Nc3ccccc3Cl)c(-c3ccncc3)n2)cc1
-3%	COCc1ccc(C(=O)N2CCC3(CC2)CC(c2ccccc2)C(=O)N3)o1 (stereo not drawn)
6%	Cc1ncc2c(c1CNC(=O)c1ccccc1-c1nn[nH]n1)CCNC2
2%[70.6 µM]	COc1ncccc1-c1nc(-c2c(C)noc2C)cc2c1cc(C)n2C
0%	Cc1ccc(CN2CCCC(c3nc(C(C)C)no3)CCNC(=O)CC2)o1 (stereo not drawn)
-14%	CCN(CC1CCOCC1)C(=O)C1(Oc2ccc(C)cc2)CCNCC1
-6%	COc1ccccc1CC(=O)N1CCC[C@H]1c1nc(-c2ccccc2)no1
2%	COc1cc(=O)n2c(c1C(=O)Nc1cc(Cl)ccc1C)CCCC2
2%	CCCNC(=O)Cn1cccc1-c1nc(-c2ccc(OC)c(F)c2)no1
-3%	CCc1cccc(NC(=O)Cn2c(N3CCOCC3)nc(C)cc2=O)c1
0%	Cc1ccc(CC(=O)N2CCC(c3n[nH]c(=O)n3Cc3ccc(F)cc3)CC2)cc1
-11%	CN(C)c1nc2c(c(=O)[nH]1)CCN(Cc1cc(F)c(F)cc1F)CC2
?	Cc1nccc(N2CCC(COc3cnc4c(ccn4CC(N)=O)c3)CC2)n1
1%	COCCOC1CCOC2(CCN(C(=O)c3ccoc3)CC2)C1 (stereo not drawn)
0%	Cc1ccc(Cn2c(C3CCN(C(=O)c4ccccn4)CC3)n[nH]c2=O)cc1
1%	CCN(CC)C(=O)CN1C(=O)NC(c2ccccc2)C2=C1COC2=O (stereo not drawn)
-1%	COc1ccccc1CCN1CCCC(CN(C)C(=O)Cn2cccnc2=O)C1 (stereo not drawn)

# Other entries follow.
NPR1 antag	molecule
-1%	CCOc1ccc(C(=O)NC2CCc3n[nH]c(=O)n3CC2)cc1OCC (stereo not drawn)
3%	COc1ccc2[nH]c3c(c2c1)CCNC31CCN(C(=O)C2CCCC2)CC1
10µM*	COc1ccc(C(=O)N2CCC3(CC2)N=C(c2ccc(Br)cc2)NO3)cc1
-3%	CCC(=O)NCCC1CCN(C(=O)Nc2ccc(C)c(F)c2)CC1
7%	O=C(CCc1nc2ccccc2s1)N1CC2CC(C1)[C@H]1CCCC(=O)N1C2 (stereo partly drawn)
?	CCN1c2cc(C(=O)NCc3cccc(C(F)(F)F)c3)ccc2C(=O)N2CCCCCC21 (stereo not drawn)
16µM*	Cc1ccc(C(=O)N2CCC(n3cc(-c4nc(C5CC5)no4)nn3)C2)s1 (stereo not drawn)
-15%	O=C1c2c(nc(COc3ccccc3)n2Cc2ccccc2)NCCN1Cc1ccccc1F
-1%	COc1ccc(N2CC(c3noc(-c4ccc(Cl)cc4)n3)CC2=O)cc1 (stereo not drawn)
0%	O=C(CCCc1ccccc1)N1CCCC(Cc2nc(C3CCOCC3)no2)C1 (stereo not drawn)
-7%[70.6 µM]	CCCCCC(=O)N[C@@H](Cn1ccc(=O)[nH]c1=O)C(=O)O
-6%	O=C(Cc1cccs1)N1CCC(n2cc(-c3nc(C4CC4)no3)nn2)C1 (stereo not drawn)
-1%	Cc1ccc(NC(=O)N2CCC(Oc3ncccc3C(=O)N3CCCCC3)C2)c(C)c1 (stereo not drawn)
8%[70.6 µM]	CN(c1ccccc1)c1cc(=O)c2ccnc(-c3ccnn3C)c2o1
-1%	COc1ccc(C(=O)NCC2c3cc(OC)c(OC)cc3CCN2C(=O)Nc2cccc(C)c2)cc1 (stereo not drawn)

# Random excerpt: 3 records from the list, in no set order.
NPR1 antag	molecule
11%[70.6 µM]	CN(Cc1cccc2ccccc12)C1CCc2ccccc21 (stereo not drawn)
0%	Cc1ccc(Cn2c(C3CCN(C(=O)c4ccccn4)CC3)n[nH]c2=O)cc1
-2%	COc1cccc(CNC(=O)c2noc(-c3ccc(C)cc3)n2)c1

# Further entries follow:
NPR1 antag	molecule
2%[70.6 µM]	O=C(N[C@H]1CCN2C(=O)c3cc(Br)ccc3NC(=O)[C@@H]2C1)c1ccco1
-20%	Cc1ccc(C(=O)N2CCC(c3n[nH]c(=O)n3-c3ccc(C)cc3)CC2)cc1
3%	Cc1cccc(S(=O)(=O)N2CCCC(Cn3cc(CO)nn3)C2)c1 (stereo not drawn)
?	CCOc1ccccc1N1CCN(C(=O)CCn2ccn3nc4c(c3c2=O)CCCC4)CC1
3%	COc1cccc(NC(=O)CCC2CCN(C(=O)CN3C(=O)CNC3=O)CC2)c1
0%	Cc1cnc(CC2CCCNC2)n1Cc1ccc(F)cc1 (stereo not drawn)
-4%	CN(CC(=O)N1CCCC(Cc2nncn2-c2ccccc2)C1)S(=O)(=O)c1cccs1 (stereo not drawn)
5%	COCCCNC(=O)N1CCCC(c2[nH]ccc2C(N)=O)C1 (stereo not drawn)
1%	CC(C)CNC(=O)C1CCN(C(=O)N2CC3CC(C2)[C@H]2CCCC(=O)N2C3)CC1 (stereo partly drawn)
-2%[70.6 µM]	COCCNC(=O)C1(C)CN(Cc2ccccc2)Cc2ccc(Nc3ccccc3)nc21 (stereo not drawn)
-7%	Cc1cc(C)c(C(=O)N[C@H](C2CCNCC2)C2CC(O)C2)c(C)c1 (stereo partly drawn)
-3%[70.6 µM]	Cc1ccc(CN2C(=O)[C@@H]3C[C@@H](O)CN3C3(CN(Cc4ccccc4F)C3)C2=O)o1
-15%	Cc1ccc(N2CCN(C(=O)C3CCCN(c4cnc5nccnc5c4)C3)CC2)cc1 (stereo not drawn)
4%	O=C(c1ccccc1F)N1CCN(C(=O)N2CC3CC(C2)[C@H]2CCCC(=O)N2C3)CC1 (stereo partly drawn)
17%	COc1cccc([S+](=O)([O-])N2CCn3c(nnc3C3CCCNC3)C2)c1 (stereo not drawn)
-8%	CNC(=O)N1CCC(OC2CCN(S(C)(=O)=O)CC2)CC1
1%	CCOCC(=O)N1CC(F)(F)C[C@H]1c1nc(C(=O)NC)no1
2%	CN(C)C1CCN(c2ccc(C(=O)N3CCC(N4CCOCC4)CC3)cn2)C1 (stereo not drawn)

# Screening data deposited in PubChem by National Center for Advancing Translational Sciences (NCATS).

# Only part of the results is shown; rates above refer to the full screens.
